Assay outcomes as filed in PubChem BioAssay.
MITF inh – blocks MITF activity. TRPM1 promoter luciferase, luminescence, 24 h. AID 2240. 0.28% of 37,000 active. inhibition, % (concentration not given with the values);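 active = most replicates at 85% or more, or half of them and the mean; inconclusive = half reach 85% but not the mean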;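 note: human melanocyte line stably carrying TRPM1 promoter luciferase reporter; 0% = vehicle wells and 100% = a positive control; the first replicate is given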
PD-1 reverse act – reversal of PD-1 mediated T-cell inhibition; 29,000 tested, under 10 active; AID 2316; primary human CD4 T cells, PD-L1 beads, CellTiter-Glo 96 h; activation, % (test concentration not listed);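 active = replicate mean of 50% or more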;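 note: 0% = median vehicle wells and 100% = positive control; 100 nL library stock added to about 50 µL; numbers are from one replicate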
Hedgehog inh – Sonic Hedgehog pathway inhibition. Shh-LIGHT2 Gli-luciferase reporter, 30 h. inhibition, % (no concentration beside the values). 2.1% of 22,000 active. AID 2313;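 active = replicate mean of 65% or more; inconclusive = mean lower but half the replicates past it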;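 note: pathway switched on by Shh-conditioned medium diluted 1 in 25 in low serum; 100 nL library stock added to about 40 µL; 0% = median of neutral wells and 100% = positive control level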
YB-1 expr inh – YB-1 expression inhibition; U2OS, qRT-PCR YB-1 vs CDIP delta delta Cp, 16 h; stronger effect = higher value; zero = DMSO, each unit about twofold; delta delta Cp (YB-1 minus CDIP) (concentration not given with the values); 0.37% of 30,000 active;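 active = delta delta Cp rounded down to an integer at or above 3, about 3 SD of DMSO wells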;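 note: higher means less YB-1 transcript or more CDIP transcript relative to DMSO; stock transfer was 100 nL into about 100 µL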
* marks the source's active call; other numbers are inactive results; ? = inconclusive; . = no result given. Only part of the results is shown (hit frequency here may not be typical).

Results follow in this order: Hedgehog inh	MITF inh	YB-1 expr inh	PD-1 reverse act
#1 Cc1ccc(C)c(NS(=O)(=O)c2ccccc2)c1
    6	2	0.074	0.1
#2 Cc1cc(C)nc(SCC(=O)c2ccc(Oc3ccccc3)cc2)n1
    .	26	.	1.1
#3 C[C@@H]1CN([C@@H](C)CO)C(=O)c2cccc(NC(=O)Nc3ccc(C(F)(F)F)cc3)c2O[C@H]1CN(C)Cc1ccc(C(F)(F)F)cc1
    -32	48	-0.35	-6.1
#4 C[C@H]1CN([C@@H](C)CO)C(=O)c2cccc(NC(=O)Nc3ccc4c(c3)OCO4)c2O[C@@H]1CN(C)Cc1ccc(-c2ccccc2)cc1
    -8	16	-0.3	1.6
#5 C[C@H]1CN([C@@H](C)CO)C(=O)c2cc(NC(=O)Nc3ccc(F)cc3)ccc2O[C@@H]1CN(C)S(=O)(=O)c1cccs1
    16	-14	0.49	-1.9
#6 C[C@H](CO)N1C[C@H](C)[C@H](CN(C)S(=O)(=O)c2cccs2)Oc2ccc(NS(C)(=O)=O)cc2CC1=O
    30	-8	0.22	0.4
#7 C[C@@H]1CN([C@@H](C)CO)C(=O)c2cc(NS(=O)(=O)c3ccccc3)ccc2O[C@@H]1CN(C)Cc1ccc(C(=O)O)cc1
    -30	-4	-0.1	0.4
#8 CCOc1c(S(=O)(=O)NCc2ccco2)ccc(Cl)c1Cl
    .	-24	.	1.2
#9 C[C@@H]1CN([C@H](C)CO)C(=O)c2cc(NS(=O)(=O)c3cccs3)ccc2O[C@H]1CN(C)S(=O)(=O)c1ccccc1
    17	-10	-0.16	-1.6
#10 Cc1noc(C)c1NC(=O)N(C)C[C@@H]1Oc2c(NC(=O)Nc3ccccc3)cccc2C(=O)N([C@@H](C)CO)C[C@@H]1C
    29	-3	0.21	0.8
#11 O=c1c2ccccc2nc2c3ccccc3c(NCc3ccccn3)nn12
    .	-2	.	-7.8
#12 C[C@@H]1CN([C@H](C)CO)C(=O)c2cc(NC(=O)Cc3ccccc3)ccc2O[C@@H]1CN(C)C(=O)NC1CCCCC1
    3	-12	0.55	-0.8
#13 O=C(O)C(Cc1ccccc1)N1C(=O)C2C3C=CC(C3)C2C1=O (stereo not given)
    .	-22	.	1.5
#14 C[C@H](CO)N1C[C@H](C)[C@H](CN(C)Cc2ccccc2)Oc2ccc(NS(=O)(=O)c3ccccc3)cc2CC1=O
    23	2	-0.011	1.9
#15 CCOC(=O)C(C)Sc1ncnc2c1sc1nc(N3CCOCC3)c3c(c12)CC(C)(C)OC3 (stereo not given)
    .	-27	.	-7.9
#16 C[C@@H]1CN([C@H](C)CO)C(=O)c2cc(NC(=O)Cn3cnnn3)ccc2O[C@@H]1CN(C)Cc1ccc(Oc2ccccc2)cc1
    5	11	-0.082	-0.5
#17 CC(C)NC(=O)Nc1ccc2c(c1)C(=O)N([C@@H](C)CO)C[C@@H](C)[C@H](CN(C)S(=O)(=O)c1cn(C)cn1)O2
    -45	-13	0.73	1.0
#18 CC(C)NC(=O)Nc1ccc2c(c1)CC(=O)N([C@@H](C)CO)C[C@H](C)[C@@H](CN(C)Cc1ccc(C(=O)Nc3ccccc3N)cc1)O2
    .	-27	0.1	-1.4
#19 C[C@H](CO)N1C[C@H](C)[C@@H](CN(C)S(=O)(=O)c2cccs2)Oc2ccc(NC(=O)CCCCCC(=O)Nc3ccccc3N)cc2C1=O
    .	0	0.069	1.3
#20 C[C@@H]1CN([C@H](C)CO)C(=O)Cc2cc(NC(=O)Cn3cnnn3)ccc2O[C@H]1CN(C)C(=O)NC1CCCCC1
    -25	7	0.13	1.4
#21 C[C@@H]1CN([C@H](C)CO)C(=O)Cc2cc(NC(=O)Nc3ccc4c(c3)OCO4)ccc2O[C@H]1CN(C)Cc1ccc(Cl)c(Cl)c1
    .	15	0.013	.
#22 COc1cc(Cl)c(C(F)(F)F)cc1NC(=O)c1c(OC)cccc1OC
    5	2	-0.42	1.2
#23 COc1ccc(CCNC(=O)c2nc(SC)ncc2Cl)cc1OC
    .	-13	.	1.2
#24 CNC(=O)CSc1c(-c2cccs2)[nH]c2ccccc12
    .	14	-0.083	0.3
#25 COc1ccc(S(=O)(=O)Nc2ccc3c(c2)C(=O)N([C@H](C)CO)C[C@H](C)[C@H](CN(C)Cc2ccc(C(F)(F)F)cc2)OCCCC[C@@H](C)O3)cc1
    .	37	0.018	-2.0
#26 CC(=O)c1cccc(NC(=O)Cn2nc(C)c([N+](=O)[O-])c2C)c1
    .	-26	.	1.7
#27 C[C@@H]1CN([C@H](C)CO)C(=O)c2cccc(NC(=O)Nc3cccc4ccccc34)c2O[C@@H]1CN(C)S(=O)(=O)c1ccc(F)cc1
    -2	9	-0.14	-4.1
#28 COc1cc(NC(=O)COc2ccc(Cl)cc2Cl)c2ncccc2c1
    .	28	.	-3.8
#29 CC(C)NC(=O)Nc1ccc2c(c1)C(=O)N([C@H](C)CO)C[C@@H](C)[C@H](CN(C)Cc1ccc(Oc3ccccc3)cc1)O2
    .	-1	-0.06	0.0
#30 COc1ccc(CN(C)C[C@@H]2Oc3ccc(NC(=O)Nc4ccc5c(c4)OCO5)cc3C(=O)N([C@H](C)CO)C[C@@H]2C)cc1
    7	-3	-0.033	0.4

Results follow in this order: Hedgehog inh	MITF inh	YB-1 expr inh	PD-1 reverse act
#31 Cc1ccc(S(=O)(=O)N(C)C[C@@H]2Oc3ccc(NC(=O)CCN4CCOCC4)cc3C(=O)N([C@H](C)CO)C[C@H]2C)cc1
    -16	9	0.044	.
#32 Cc1cc(Nc2ccc(F)cc2)nc(SCc2c(Cl)cccc2Cl)n1
    .	26	-0.088	-0.8
#33 Cc1ccccc1NC(=O)COc1ccc(-c2nc3sc4c(c3c(=O)[nH]2)CCCC4)cc1
    .	-6	.	0.0
#34 COc1cc(NS(=O)(=O)c2ccc(NC(=O)c3ccc(Cl)cc3Cl)cc2)ncn1
    .	-2	.	-0.4
#35 Cc1ccc(S(=O)(=O)N(C)C[C@H]2Oc3ccc(NC(=O)Nc4c(C)noc4C)cc3C(=O)N([C@@H](C)CO)C[C@H]2C)cc1
    9	-4	-0.35	1.3
#36 Cc1noc(C)c1S(=O)(=O)Nc1cccc2c1O[C@@H](CN(C)Cc1ccc(C(=O)O)cc1)[C@@H](C)CN([C@@H](C)CO)C2=O
    -32	-3	-0.2	0.3
#37 C[C@@H]1CN([C@@H](C)CO)C(=O)c2cc(NC(=O)c3ccncc3)ccc2O[C@H]1CN(C)Cc1ccc2c(c1)OCO2
    -3	6	-0.006	.
#38 COc1ccc(NC(=O)N(C)C[C@H]2Oc3ccc(NC(=O)CCCCCC(=O)Nc4ccccc4N)cc3CC(=O)N([C@H](C)CO)C[C@H]2C)cc1
    .	-18	-0.27	-0.7
#39 NS(=O)(=O)c1ccc(NC(=S)NCCc2c[nH]c3ccccc23)cc1
    .	6	.	-0.8
#40 COc1ccc(Cl)cc1NC(=O)COc1ccc([N+](=O)[O-])cc1
    .	-15	.	0.8
#41 O=C(CSc1ncnc2scc(-c3ccc(Cl)cc3)c12)Nc1nsc(-c2ccccc2)n1
    .	-2	.	0.5
#42 CCCN(C)C[C@@H]1OCCCC[C@@H](C)Oc2ccc(NS(=O)(=O)c3ccc(C)cc3)cc2C(=O)N([C@H](C)CO)C[C@@H]1C
    -12	-11	0.029	-1.5
#43 N#Cc1cnc2c(-c3ccccc3)c(COc3ccccc3)nn2c1N
    -10	-16	0.42	0.9
#44 C=C(C(=O)O)C1CCC2(C)CCC(O)C2(C(C)=O)C1 (stereo not given)
    -7	7	0.27	-0.1
#45 COc1c(OC2OC(CO)C(O)C(O)C2O)ccc(O)c1C(=O)OCc1ccccc1O[C@@H]1O[C@H](CO)[C@@H](O)[C@H](O)[C@H]1O (stereo not given in full)
    6	-5	-0.1	-0.2
#46 C[C@@H]1CN([C@@H](C)CO)C(=O)c2cccc(NC(=O)Nc3ccc4c(c3)OCO4)c2O[C@H]1CN(C)S(=O)(=O)c1ccc(F)cc1
    1	2	0.26	.
#47 Cc1cc2c(c(=O)n1CCN1CCOCC1)C(c1cccc(F)c1)C(C#N)=C(N)O2 (stereo not given)
    .	0	-0.42	-0.8
#48 CC(=O)O[C@@H]1[C@@H](OC(C)=O)[C@H](C)O[C@@H](O[C@H]2[C@@H]3C=CO[C@@H](O[C@@H]4O[C@H](CO)[C@@H](O)[C@H](O)[C@H]4O)[C@@H]3[C@@]3(CO)O[C@@H]23)[C@@H]1OC(=O)/C=C/c1ccccc1
    7	-1	-0.31	0.7
#49 Cc1cc(C)nc(SCC(=O)Nc2ccc(C(=O)O)cc2)n1
    .	-6	.	2.2
#50 Cc1noc(C)c1NC(=O)N(C)C[C@@H]1Oc2ccc(NS(=O)(=O)c3ccc(Cl)cc3)cc2CC(=O)N([C@@H](C)CO)C[C@@H]1C
    .	6	-0.16	1.5
#51 C[C@H]1CN([C@@H](C)CO)C(=O)Cc2cc(NC(=O)Nc3ccc(C(F)(F)F)cc3)ccc2O[C@@H]1CN(C)Cc1ccncc1
    38	3	0.1	.
#52 N#Cc1c(-c2ccco2)nc(SCC(=O)Nc2ccc(I)cc2)[nH]c1=O
    .	-1	.	0.3
#53 Cc1oc2c(c1C(=O)NCc1ccccc1)C(=O)c1ccccc1C2=O
    93*	58	0.24	-2.5
#54 COc1ccc(NC(=O)Nc2ccc3c(c2)CC(=O)N([C@H](C)CO)C[C@@H](C)[C@@H](CN(C)Cc2ccc(-c4ccccc4)cc2)O3)cc1
    13	4	-0.13	-2.0
#55 COc1ccc(NC(=O)Nc2ccc3c(c2)CC(=O)N([C@@H](C)CO)C[C@@H](C)[C@@H](CN(C)C(=O)Nc2ccc(OC)cc2)O3)cc1
    1	-3	-0.091	1.3
#56 C[C@H]1CN([C@@H](C)CO)C(=O)c2cccc(NC(=O)c3cnccn3)c2O[C@H]1CN(C)Cc1ccc2c(c1)OCO2
    7	-27	0.28	0.4
#57 C[C@@H]1CN([C@@H](C)CO)C(=O)Cc2cc(N(C)C)ccc2O[C@@H]1CN(C)Cc1ccc(Oc2ccccc2)cc1
    -3	10	0.4	.
#58 C[C@@H]1CN([C@@H](C)CO)C(=O)c2cc(NC(=O)CCCCCC(=O)Nc3ccccc3N)ccc2O[C@@H]1CN(C)CC1CCCCC1
    .	-3	-0.27	0.3
#59 C[C@@H]1CCC2C(C)(C)CCC[C@@]2(C)[C@@]1(O)CC/C(=C\CO)CO (stereo not given in full)
    1	.	0.22	.
#60 Cc1ccc(S(=O)(=O)N(C)C[C@H]2Oc3c(NC(=O)Nc4ccc5c(c4)OCO5)cccc3C(=O)N([C@@H](C)CO)C[C@@H]2C)cc1
    18	-22	0.15	1.8

Results follow in this order: Hedgehog inh	MITF inh	YB-1 expr inh	PD-1 reverse act
#61 C[C@H](CO)N1C[C@H](C)[C@H](CN(C)C(=O)Nc2ccccc2)Oc2c(NC(=O)C3CCCCC3)cccc2C1=O
    ?	-4	-0.01	-0.5
#62 C[C@@H]1CN([C@H](C)CO)C(=O)Cc2cc(NS(=O)(=O)c3ccc(Cl)cc3)ccc2O[C@@H]1CN(C)C(=O)Nc1ccccc1
    4	-18	0.12	1.9
#63 O=C(NCc1cccnc1)c1cnn2c(C(F)(F)F)cc(-c3ccccc3)nc12
    .	-7	.	-7.0
#64 Cc1ccc(-c2nnc(N3CCN(C(=O)CSc4ncn[nH]4)CC3)c3ccccc23)cc1
    .	25	.	0.1
#65 Cc1noc(C)c1S(=O)(=O)Nc1cccc2c1O[C@H](CN(C)S(=O)(=O)c1ccc(F)cc1)[C@H](C)CN([C@@H](C)CO)C2=O
    -45	8	-0.12	.
#66 Cc1ccc(S(=O)(=O)Nc2ccc3c(c2)C(=O)N([C@@H](C)CO)C[C@H](C)[C@@H](CN(C)Cc2ccccc2)O3)cc1
    27	-3	0.4	0.8
#67 Cc1noc(C)c1S(=O)(=O)Nc1ccc2c(c1)C(=O)N([C@@H](C)CO)C[C@H](C)[C@H](CN(C)Cc1ccc(C(F)(F)F)cc1)O2
    .	-8	0.11	-5.0
#68 OCc1nc2ccccc2n1CCOc1cccc(Cl)c1
    .	-4	.	-2.2
